# High-throughput results from PubChem.
# VDR inhibitor = blocks the human vitamin D receptor. P11473. VDR-SRC2-3 peptide fluorescence polarization, 2 h. Potency, µM, for inactives: max response, negative = inhibition, usual class: inhibitors. 0.93% of 400,000 active. AID 504847; active means well fitted inhibition curve with a large enough effect; inconclusive means small, poorly fitted or top-dose-only effect, or another doubt; inactive means no such curve, though single readings can be large or run the other way; further: series mostly up to about 120 µM
# Target sequence (P11473 whole entry, looked up): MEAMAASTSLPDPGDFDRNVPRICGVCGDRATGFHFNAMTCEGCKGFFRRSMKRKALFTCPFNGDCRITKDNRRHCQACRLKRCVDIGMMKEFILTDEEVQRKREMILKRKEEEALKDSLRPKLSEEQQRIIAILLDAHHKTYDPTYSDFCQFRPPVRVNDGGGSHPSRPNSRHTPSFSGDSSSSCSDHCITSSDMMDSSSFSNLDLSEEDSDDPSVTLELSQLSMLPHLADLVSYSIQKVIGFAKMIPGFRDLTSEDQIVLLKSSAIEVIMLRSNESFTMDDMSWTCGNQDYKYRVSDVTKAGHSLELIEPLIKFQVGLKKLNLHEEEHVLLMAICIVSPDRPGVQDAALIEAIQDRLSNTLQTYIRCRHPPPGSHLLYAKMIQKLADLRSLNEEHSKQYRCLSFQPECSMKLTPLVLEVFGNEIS
#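 Two reagent solutions held at 4 deg C in the dark were dispensed, compounds pinned at 23 nl, and the mixture incubated 2 h at room temperature. Read-out: fluorescence polarization of VDR–SRC2-3 peptide binding.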
# * marks the source's active call; other numbers are inactive results; ? = inconclusive; & = joins results of further samples. On the % scale 0 is the no-effect control and ±100 the full control effect; potency means the concentration at half of the fitted maximal effect. This is a subset; the hit share may differ from the screen's.
SMILES,VDR inhibitor
CCC(C)(C)NC(=O)C(c1sccc1C)N(Cc1ccco1)C(=O)c1csnn1 (configuration not stated),-12.8%
CN(C)CC(=O)Nc1ccc(Oc2ccc(Cl)cc2)cc1,14.0%
O=C(NC1CC1)C1=C[C@@H](c2ccc(Br)cc2)C[C@@H](OCc2ccc(CO)cc2)O1,1.6%
Cc1nc(S/C(=C/c2ccc(-c3ccc(Cl)cc3)o2)C(=O)O)n[nH]1,-2.5%
Cc1ccccc1-n1c(SCC(=O)NCC2CCCO2)nnc1-c1ccncc1 (configuration not stated),5.2%
CCOC(=O)C1=CN(Cc2ccco2)S(=O)(=O)NC1c1ccc(C(F)(F)F)cc1 (configuration not stated),-29.5%
COc1ccccc1NC(=O)NCC(=O)Nc1ccc(F)c(F)c1,-23.0%
O=C1NC2=C(C(=O)OC2)C(c2ccc(OC(F)(F)F)cc2)N1 (configuration not stated),13.3%
Oc1ccc(NC(=S)Nc2ccccc2)cc1,-7.9%&-23.3%
CN1CCN(Cc2c(O)ccc3cc(-c4ccccc4)c(=O)oc23)CC1,12.3%
CCC1Nc2ncnc(N3CCCCC3)c2N(Cc2ccccc2)C1=O (configuration not stated),-6.0%
COC(=O)c1ccc(NC(=O)CCN2CCOCC2)cc1,-7.7%
COc1ccccc1-c1nc(SCC(=O)N2CCOCC2)n[nH]1,-19.1%
CCC(=O)Oc1c(Sc2ccc(C)cc2)c(C)nn1-c1ccccc1,79.4µM*
Cc1ccc(CN(c2ccc(C(=O)NCC3CCCO3)cc2)S(C)(=O)=O)cc1 (configuration not stated),-3.4%
CSc1ccccc1NC(=O)Nc1cccc(F)c1,-29.5%
CN(C)c1ccc(-c2nc(-c3cccs3)c(-c3cccs3)[nH]2)cc1,-3.2%
CC(=O)c1cccc(NC(=O)CN(C)S(=O)(=O)c2ccc3c(c2)CC(C)N3C(C)=O)c1 (configuration not stated),-4.0%
COc1ccc(-n2nc(C(=O)NCC(=O)N3CCN(c4ccccc4)CC3)c3ccccc3c2=O)c(OC)c1,5.3%
FC(F)Sc1ccc(-n2cc(-c3ccccc3)[n+]3c2CCC3)cc1,-2.6%
O=C(CSc1nc2ccccc2nc1Cc1ccccc1F)Nc1cccc(C(F)(F)F)c1,-9.4%
Cc1cc(NC(=O)c2ccc(Cl)cc2Cl)n(CCC#N)n1,6.0%
O=C(c1cccc(NS(=O)(=O)c2ccc(F)c(F)c2)c1)N1CCN(Cc2ccccc2)CC1,-4.0%
Cc1ccc(C)c2[nH]c(=O)c(CN(CCN3CCOCC3)Cc3nnnn3CC3CCCO3)cc12 (configuration not stated),-3.2%
CC(C)CN1CCC(=O)N(CCO)CC1,-0.8%

# The closing 2 entries of the section before are carried over, then new ones follow:
SMILES,VDR inhibitor
Cc1ccc(C)c2[nH]c(=O)c(CN(CCN3CCOCC3)Cc3nnnn3CC3CCCO3)cc12 (configuration not stated),-3.2%
CC(C)CN1CCC(=O)N(CCO)CC1,-0.8%
O=c1oc2ccccc2c(Nc2ccccc2O)c1[N+](=O)[O-],-4.3%
CCOc1ccc(N(CC(=O)NC2CC3CCC2C3)S(=O)(=O)c2ccccc2)cc1 (configuration not stated),-6.8%
Cc1cccc(OCC(O)Cn2ccnc2C)c1 (configuration not stated),-14.6%
CCC(Sc1nc2ccccc2c(=O)[nH]1)C(=O)O (configuration not stated),-0.9%
COc1cc(NC(=O)CCC(=O)Nc2ccc3nc(N4CCOCC4)cc(C)c3c2)cc(OC)c1OC,-3.9%
O=S(=O)(NCCS(=O)(=O)N1CCN(c2cccc(Cl)c2)CC1)c1ccc(F)cc1,26.8%
Cc1ccc(S(=O)(=O)c2cn(CC(=O)Nc3ccc4c(c3)OCO4)c3ccccc3c2=O)cc1,2.8%
Oc1c(C(c2ccccc2Cl)N2CCCC2)ccc2cccnc12 (configuration not stated),?
O=C(Cc1c(F)cccc1Cl)NCCc1c[nH]c2ccccc12,-1.7%
O=c1[nH]cnc2c1sc(=S)n2-c1ccccc1,?
Cc1cccc(NC(=O)CSCc2cc(=O)n3ccsc3n2)c1C,-1.8%
O=C(CSc1ncn[nH]1)N1CCN(c2nnc(-c3ccccc3)c3ccccc23)CC1,10.8%
COc1ccc(C2C(C(=O)OCC(=O)Nc3ccc(C)cc3)CCC(=O)N2c2ccc(OC)cc2)cc1 (configuration not stated),-5.0%
O=C(COc1ccc(Cl)cc1)N1CCN(S(=O)(=O)c2ccc(Cl)cc2)CC1,14.9%
Cc1nc2ccccc2nc1CSc1nncs1,18.3%
COc1ccc(OC)c(C2CC(c3ccccc3)=NN2C(=S)Nc2ccccc2)c1 (configuration not stated),-0.1%
CC(=O)Oc1ccc(-c2csc(Nc3ccc(S(N)(=O)=O)cc3)n2)cc1,4.0%
Nc1c(C(=O)NCc2ccc3c(c2)OCO3)c2nc3ccccc3nc2n1CCCN1CCOCC1,-2.6%
COc1cc(OC)cc(OCC(O)Cn2ccnc2C)c1 (configuration not stated),-8.8%
CC(=O)c1c(O)cc(=O)oc1-c1ccc(C)cc1,-4.6%
CSc1ccc(C(=O)C2CCCN(C(=O)c3cccnc3SC)C2)cc1 (configuration not stated),0.5%
CCOc1ccc2oc(C(=O)OCC(=O)N3C(C)CCCC3C)c(C)c2c1 (configuration not stated),-3.0%
COc1ccc(-n2c(C)cc(/C=C3\C(=N)N4N=C(CC(=O)N5CCOCC5)SC4=NC3=O)c2C)c(OC)c1,-0.4%
COCc1nnc(NC(=O)C2CCN(C(=O)c3ccco3)CC2)s1,-7.5%
CCOc1ccc(N=C2NC(=O)CS2)cc1,-9.5%

# (further entries)
SMILES,VDR inhibitor
COc1cc(C(=O)N(CCN(C)C)CC2CCCN(Cc3ccccc3F)C2)ccc1C (configuration not stated),-13.3%
Cc1cc(OC(=O)c2cccc(F)c2)c([N+](=O)[O-])c(=O)[nH]1,14.2%
COc1cccc(NC(=O)CS(=O)(=O)c2cn(CC(=O)N3CCOCC3)c3ccccc23)c1,3.8%
CCOc1ccc(N2CC(C(=O)Nc3nnc(C4CCCCC4)s3)CC2=O)cc1 (configuration not stated),-18.3%
O=C(Cc1cccc(C(F)(F)F)c1)OCN1C(=O)c2ccccc2C1=O,-9.3%
N#C/C(=C\c1ccc(OC(=O)c2ccccn2)cc1)C(N)=O,-25.4%
COc1ccc(CCN2C(=S)N(c3ccc(Cl)cc3)C(=O)C2CC(N)=O)cc1OC (configuration not stated),-6.2%
COCCn1c(SCC(=O)Nc2ccc(OC)cc2)nnc1-c1ccoc1C,-10.3%
O=C(CSc1nnc2ccccn12)NCc1ccc2c(c1)OCO2,-18.6%
O=C(OCc1c(Cl)nc2sccn12)c1cc2c(s1)CCCC2,2.2%
Cc1cc(OCCCC(=O)Nc2cc(S(=O)(=O)N3CCOCC3)ccc2N2CCOCC2)ccc1Cl,-13.8%
Cn1c(=NC(=O)c2cnccn2)sc2ccccc21,-8.3%
Cc1cccc(S(=O)(=O)c2cn(Cc3ccc(F)cc3)c3cc(N4CCOCC4)c(F)cc3c2=O)c1,13.4%
Cc1cc(=O)[nH]c(N/N=C/c2c(C)nn(-c3ccccc3)c2Cl)n1,6.6%
Cc1ccc(CNC(=O)c2ccccc2-n2cnnn2)cc1,-8.8%
O=C(CN(c1ccccc1)S(=O)(=O)c1ccccc1[N+](=O)[O-])Nc1cccnc1,-7.1%
CCOC(=O)c1nnc(-c2ccc(C)cc2)nc1Sc1ccc(Cl)cc1,?
COCCNC(=O)C1CCC(=O)N(c2ccc(OC)cc2)C1c1ccc(OC)c(OC)c1 (configuration not stated),-5.5%
COc1ccc(NC(=O)Nc2cccc(-c3noc(C)n3)c2)cc1,10.2%
CCCNC(=O)C(Cc1ccccc1)NC(=O)c1ccccc1 (configuration not stated),0.1%
CC1(C)CC(NC(=O)C(=O)NCCc2ccccc2)CC(C)(C)N1,-14.2%
Fc1ccc(-n2ncc3c(NCCC4=CCCCC4)ncnc32)cc1,5.9%
O=C(Nc1cccnc1)c1cc(-c2cccs2)on1,-10.8%
CCOC(=O)N1N=C(C)CC1(O)c1ccc(Cl)cc1 (configuration not stated),-5.9%
C=CCNC(=O)/C(=C/c1ccccc1OCC)NC(=O)c1ccccc1,-12.7%

# Exported as labelled records: entries from further up.
Molecule: CC(=O)c1cccc(NC(=O)CN(C)S(=O)(=O)c2ccc3c(c2)CC(C)N3C(C)=O)c1 (configuration not stated)
- VDR inhibitor = -4.0%
Molecule: COc1ccc(-n2nc(C(=O)NCC(=O)N3CCN(c4ccccc4)CC3)c3ccccc3c2=O)c(OC)c1
- VDR inhibitor = 5.3%

# More compounds:
SMILES,VDR inhibitor
COc1c(Cl)ccc(Cl)c1C(=O)NC(=O)N1CCOCC1,2.4%
CCCn1c(=O)c(C(=O)NNC(=O)c2ccc(Cl)cc2Cl)c(O)c2ccccc21,-5.3%
CC1CCN(S(=O)(=O)c2ccc3c(c2)N(CC(=O)NCCc2ccccc2)C(=O)CO3)CC1,10.5%
COc1ccccc1NC(=O)CN1CCN(CC(=O)Nc2ccccc2F)CC1,-1.6%
COc1ccc(/C=C/C2=CC(C)(C)NC(=S)N2)cc1OC,-23.0%
COc1ccc(/C(O)=C2/C(=O)C(=O)N(CCN(C)C)C2c2cccnc2)cc1C (configuration not stated),10.6%
Cc1nc([N+](=O)[O-])cn1CC(=O)c1ccccc1,-0.8%
CC1Cc2ccccc2N1C(=O)CN(C)S(=O)(=O)c1cccc2cccnc12 (configuration not stated),-16.0%
CC(NC(=O)CSc1nc2ccccc2n1C)c1ccccc1 (configuration not stated),2.9%
CN1CCN(C(=O)C2=C[C@H](C3CC3)C[C@H](OCc3ccc(CO)cc3)O2)CC1,1.0%
C=Cc1ccc(Cn2nc(-c3ccc(C)c(S(=O)(=O)N(CC)CC)c3)ccc2=O)cc1,6.1%
O=C(NC(=S)Nc1ccc(Br)c(Cl)c1)C1CC1,4.6%
CC(=O)Nc1ccc(NC(=O)C(C)OC(=O)CN2C(=O)C3CCCCC3C2=O)cc1 (configuration not stated),-7.8%
COc1ccc(/C=N\NC(=O)C2COc3ccccc3O2)cc1O (configuration not stated),-10.9%
COc1ccc(S(=O)(=O)NCCSCc2ccco2)cc1OC,10.3%
Cc1ccc(N(CC(=O)Nc2cc(Cl)ccc2Oc2ccccc2)S(C)(=O)=O)cc1C,18.2%
COc1ccc(C(=O)[C@@H]2CC[C@](C)(C(=O)O)C2(C)C)cc1,-5.9%
COC(=O)c1ccc(OC)c(CSc2nnc(COc3ccc(OC)cc3)o2)c1,-20.6%
COc1ccc(N2CCN(C(=O)c3ccc(Br)cc3)CC2)c([N+](=O)[O-])c1,11.0%
CN(C(=O)COC(=O)/C=C/c1ccc(C(F)(F)F)cc1)C1CCS(=O)(=O)C1 (configuration not stated),13.4%
O=C(c1ccco1)N1CCN(S(=O)(=O)c2ccccc2)CC1,-3.2%
O=C(Nc1ccc(Cl)cc1)NC1CCS(=O)(=O)C1 (configuration not stated),-9.5%
CC(=O)N1CCC2(CCN(Cc3ccccc3)CC2)CC1,5.7%
Cc1ccc(C)c(NC(=O)CN2C(=O)c3cccnc3Oc3ccc(C)cc32)c1,-6.9%
O=C(OCC(=O)N1CCC(Cc2ccccc2)CC1)c1ccccc1NCCO,7.0%

# The list goes on:
SMILES,VDR inhibitor
COc1ccc(COC(=O)CCc2cc(OC)c(OC)c(OC)c2)cc1F,2.1%
COc1ccccc1NC(=S)NC(NC(C)=O)C(Cl)(Cl)Cl (configuration not stated),9.6%
COc1ccc(NC(=O)CN(C)C(=O)CNC(=O)c2cccs2)cc1,-0.9%
Cc1cc(Br)ccc1NC(=O)C1CCN(S(=O)(=O)c2ccc(Br)s2)CC1,-16.5%
Cc1cc(C)c(OCCn2ccnc2)c(C)c1,-11.8%
CN(Cc1cccc(Cl)c1Cl)CC(O)COc1ccccc1 (configuration not stated),-21.1%
CC(C)(C)OC(=O)N1CCCC(C(=O)Nc2ccc(C(=O)N3CCCC3)cc2)C1 (configuration not stated),0.2%
c1ccc2c(CSCc3nc4ccccc4[nH]3)cccc2c1,15.8%
Cc1nc2ccccc2c2nc(NC(=O)Cc3ccccc3)nn12,5.5%
Cc1cc(Br)cc2c(C(=O)NCC3CCCO3)cc(-c3ccccc3)nc12 (configuration not stated),-10.8%
O=C(Nc1ccc(F)cc1)c1csc2c1CCCCC2,-5.7%
CC(=O)c1cccc(NC(=O)C2CCCN2S(=O)(=O)c2cccc3cccnc23)c1 (configuration not stated),-10.5%
CCCCOc1ccccc1C1CC(=O)Nc2ccc3ccccc3c21 (configuration not stated),-11.0%
Cc1noc(C)c1COc1ccc(C(=O)OCC(=O)OC(C)(C)C)cc1,-3.2%
CCn1ccc2cc(S(=O)(=O)N3CCCN(C(=O)NCC(=O)OC)CC3)ccc21,18.9%
CCOC(=O)C(=O)N1CCN(c2cc3c(cc2[N+](=O)[O-])n(C)c(=O)n3C)CC1,-2.0%
c1ccc(OCCOCCN2CCOCC2)cc1,5.1%
O=C(CSc1nnnn1-c1cccc2ccccc12)Nc1ccc(C(=O)O)cc1,3.6%
COc1cc(-c2nnc(CSc3nnc(Nc4ccc(Oc5ccccc5)cc4)s3)o2)cc(OC)c1OC,-24.9%
CCC(C)NC(=O)CN1C(=O)NC2NC(=O)NC21 (configuration not stated),-9.7%
O=C(Cc1cccc(C(F)(F)F)c1)Nc1ccccc1,-2.4%

# Some of the entries above, set out differently:
structure | VDR inhibitor
CN(Cc1cccc(Cl)c1Cl)CC(O)COc1ccccc1 (configuration not stated) | -21.1%
Cc1nc2ccccc2c2nc(NC(=O)Cc3ccccc3)nn12 | 5.5%
c1ccc2c(CSCc3nc4ccccc4[nH]3)cccc2c1 | 15.8%
Cc1noc(C)c1COc1ccc(C(=O)OCC(=O)OC(C)(C)C)cc1 | -3.2%
CC(C)(C)OC(=O)N1CCCC(C(=O)Nc2ccc(C(=O)N3CCCC3)cc2)C1 (configuration not stated) | 0.2%
COc1ccc(COC(=O)CCc2cc(OC)c(OC)c(OC)c2)cc1F | 2.1%

# Two of the compounds above, with tabs:
SMILES	VDR inhibitor
COCc1nnc(NC(=O)C2CCN(C(=O)c3ccco3)CC2)s1	-7.5%
CCOc1ccc(N=C2NC(=O)CS2)cc1	-9.5%
